Source: PubChem BioAssay
KCNQ2 pot = KCNQ2 (rat) channel potentiation. B-score at 10 µM. O88943. CHO-K1 KCNQ2, FluxOR thallium flux fluorescence; stronger effect = higher value. actives 0.54% (n = 310,000);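 active means fluorescence ratio B-score at least 3 SD of library B-scores, with initial fluorescence B-score within 3 SD, cut at about 5.3 in these data; same plate scores as AID 2156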;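 further: B-score of peak minus minimum over baseline fluorescence ratio after K+ and Tl+ stimulus; positive B-score means potentiation of KCNQ2 with more thallium influx and brighter signal; only the inactives scoring about 0 or higher are listed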
Target sequence (O88943 whole entry, looked up): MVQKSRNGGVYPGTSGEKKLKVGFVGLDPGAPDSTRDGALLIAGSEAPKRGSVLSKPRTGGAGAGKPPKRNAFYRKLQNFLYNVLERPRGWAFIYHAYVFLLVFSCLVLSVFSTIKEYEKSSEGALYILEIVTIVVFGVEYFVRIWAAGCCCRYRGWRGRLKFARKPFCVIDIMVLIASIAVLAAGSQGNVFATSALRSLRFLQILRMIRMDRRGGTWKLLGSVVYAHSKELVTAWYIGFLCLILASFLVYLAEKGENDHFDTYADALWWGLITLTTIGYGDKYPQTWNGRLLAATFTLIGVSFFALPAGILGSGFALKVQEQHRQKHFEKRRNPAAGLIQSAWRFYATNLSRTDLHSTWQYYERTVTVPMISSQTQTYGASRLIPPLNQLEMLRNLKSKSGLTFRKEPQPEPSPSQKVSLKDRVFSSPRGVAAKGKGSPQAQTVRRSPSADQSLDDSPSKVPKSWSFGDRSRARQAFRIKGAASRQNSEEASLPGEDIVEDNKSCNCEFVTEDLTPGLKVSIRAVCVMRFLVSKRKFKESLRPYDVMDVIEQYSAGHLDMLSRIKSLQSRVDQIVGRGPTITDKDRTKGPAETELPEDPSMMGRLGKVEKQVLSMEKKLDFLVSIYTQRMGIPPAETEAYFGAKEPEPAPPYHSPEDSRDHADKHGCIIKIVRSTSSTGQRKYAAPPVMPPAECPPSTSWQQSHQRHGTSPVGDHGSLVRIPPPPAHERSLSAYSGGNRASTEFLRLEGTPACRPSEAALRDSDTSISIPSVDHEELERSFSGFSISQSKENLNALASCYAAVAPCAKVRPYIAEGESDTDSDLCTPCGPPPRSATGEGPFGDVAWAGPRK
KCNQ2 pot baseline = further read-out of KCNQ2 pot, marked with its call; B-score; compound at 10 µM; measured here: initial fluorescence intensity artifact check;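 brightness before thallium and not channel activity; 0 = typical well and far values either way flag optical interference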
The depositor's hits bear a star. This is a subset (hit frequency here may not be typical).

Start of the data: the first 4 entries as a preview:
Below each compound – KCNQ2 pot baseline	KCNQ2 pot
[1] CCn1nc(C)c(NS(=O)(=O)c2ccc(C)cc2)c1C
    -0.61	0.11
[2] COc1cccc(Nc2c(F)c(F)c(F)c(F)c2C(=O)O)c1
    -0.43	1.11
[3] CCOc1ccc(/C(C)=N\NC(=O)Cc2ccccc2)cc1
    -0.71	0.91
[4] O=C(Nc1ccn(Cc2ccc(F)cc2)n1)c1ccncc1
    -0.03	0.03

Main list, previewed entries included:
Below each compound – KCNQ2 pot baseline	KCNQ2 pot
[1] CCn1nc(C)c(NS(=O)(=O)c2ccc(C)cc2)c1C
    -0.61	0.11
[2] COc1cccc(Nc2c(F)c(F)c(F)c(F)c2C(=O)O)c1
    -0.43	1.11
[3] CCOc1ccc(/C(C)=N\NC(=O)Cc2ccccc2)cc1
    -0.71	0.91
[4] O=C(Nc1ccn(Cc2ccc(F)cc2)n1)c1ccncc1
    -0.03	0.03
[5] CC(=O)Nc1ccc(NC(=O)c2ccc(COc3ccccc3)cc2)cc1
    0.75	0.29
[6] Cn1c(=O)n(C)c2cc([N+](=O)[O-])c(N3CCN(C(=O)c4cccc(Cl)c4)CC3)cc21
    -0.03	1.5
[7] CSc1ccccc1C(=O)NCC1CCCO1 (stereo unspecified)
    1.28	0.38
[8] COC(=O)c1cc(OC)c(OC)cc1NC(=O)c1cccnc1
    0.9	0.28
[9] CNC(=O)Cn1ncc2c3ccccc3n(C)c2c1=O
    0.18	0.64
[10] COc1cc(/C=N/O)cc(Br)c1OC
    0.36	0.29
[11] O=C(Cc1c(F)cccc1Cl)NNC(=S)Nc1ccc(S(=O)(=O)Nc2ncccn2)cc1
    -0.59	0.7
[12] Cc1cc(/C=C2\NC(=O)NC2=O)c(C)n1-c1cccnc1
    1.2	0.74
[13] Cc1ccc(S(=O)(=O)N(C)/N=C/c2ccc(C(=O)O)cc2)cc1
    1.4	0.1
[14] Cc1ccc(S(=O)(=O)N2CCOCC2)cc1C(=O)NCCCn1ccnc1
    -0.04	1.51
[15] O=c1sc(N2CCN(c3ccccc3F)CC2)nc2ccsc12
    -2.64	1.25
[16] CCCN(CCC)C(=O)c1cn(C)c2ccc(S(=O)(=O)N3CCCC3)cc2c1=O
    -2.45	0.76
[17] Oc1ccc(F)c2cccnc12
    0.97	2.59
[18] CCCCn1nnc(NC(=O)COc2cc(C)ccc2C(C)C)n1
    -0.01	0.03
[19] Cc1onc(-c2ccccc2Cl)c1C(=O)NC(C)c1ccccc1 (stereo unspecified)
    -0.27	0.42
[20] Cc1[nH]c2ccccc2c1/C=N\NC(=O)Cn1nnc(-c2ccccc2)n1
    -0.56	0.09

(next part)
Below each compound – KCNQ2 pot baseline	KCNQ2 pot
[21] O=C(O)C(Cc1ccccc1)NC(=O)C(Cc1ccccc1)NC(=O)C12CC3CC(CC(C3)C1)C2 (stereo unspecified)
    0.52	1.37
[22] C/C(=C\c1cccs1)C(=O)c1c(C)cc(C)[nH]c1=O
    0.02	1.15
[23] CC(C)COC(=O)Nc1ccccc1C(=O)N1CCOCC1
    0.38	0.07
[24] O=C(O)[C@H]1Cc2ccccc2CN1S(=O)(=O)c1ccc(F)cc1
    -1.29	1.21
[25] O=C(Cn1ncc2c3ccccc3n(Cc3ccc(F)cc3)c2c1=O)N1CCN(c2ncccn2)CC1
    -0.33	2.81
[26] COc1ccccc1OCC(=O)Nc1ccc(S(=O)(=O)NC(C)=O)cc1
    -0.57	0.16
[27] O=C(CN1CCN(Cc2ccc(F)cc2)CC1)Nc1nc2ccccc2s1
    1.42	4.4
[28] CCOC(=O)C1CCCN(C(=O)c2ccc(CS(=O)(=O)Cc3ccccc3C)o2)C1 (stereo unspecified)
    0.06	0.62
[29] Cc1cc(C)cc(C(=O)NC(CC(N)=O)c2ccc(NC3CCCCCC3)c([N+](=O)[O-])c2)c1 (stereo unspecified)
    0.67	0.35
[30] COc1ccccc1CNC(=O)CSc1nnc2c(Cl)cc(C(F)(F)F)cn12
    0.51	0.3
[31] CCc1ccc(OCc2nnc(SCC(=O)NCC3CCCO3)n2C)cc1 (stereo unspecified)
    -1.54	0.24
[32] CC(C)c1onc(C(=O)Nc2cccnc2Cl)c1[N+](=O)[O-]
    0.18	1.43
[33] CCN(CC(=O)Nc1ccc(NC(C)=O)cc1)CC(=O)Nc1cccc(Cl)c1
    -1.86	0.57
[34] O=C(c1ccccc1)N1CCN(C2c3cccc4cccc(c34)C2NS(=O)(=O)c2ccccc2)CC1 (stereo unspecified)
    -1.69	0.25
[35] C/C(=N\Nc1nc(N)cc(Cl)n1)c1cccc([N+](=O)[O-])c1
    -2.48	1.99
[36] CCOC(=O)C1(Cc2ccc(Cl)cc2)CCN(C(=O)C2CCCO2)CC1 (stereo unspecified)
    0.38	1.81
[37] COC(=O)Cc1ccc(NC(=S)N2CCN(CCO)CC2)cc1
    -0.63	0.09
[38] O/N=C/c1ccn(-c2ccc(Br)cc2)c1
    -0.11	2.03
[39] CN(C)CCNC(=O)c1ccc2c(=O)n(Cc3ccc(Cl)cc3)c(=S)[nH]c2c1
    -0.01	1.26
[40] CC(C)[C@@H]1NC(=O)c2cc([N+](=O)[O-])cc(I)c2OCC[C@@H](C(N)=O)NC(=O)[C@H](CCC(=O)O)NC1=O
    0.19	0.4

The list continues.
Below each compound – KCNQ2 pot baseline	KCNQ2 pot
[41] COc1cc(S(=O)(=O)N2CCCCC2)ccc1NC(=O)c1ccc(F)cc1
    1.54	0.44
[42] CCOC(=O)N1CCC(NC(=O)Cc2cn(C)c3ccccc23)CC1
    -0.26	0.71
[43] O=[N+]([O-])c1cc([N+](=O)[O-])c(Oc2ccc(F)cc2)cc1NN1CCCCC1
    -0.68	0.11
[44] Cc1ccc(S(=O)(=O)N2CCN(CC(=O)N/N=C/c3ccccc3OCC(=O)O)CC2)cc1
    0.33	0.82
[45] Cc1ccc(CNC(=S)N(C)C)cc1
    2.42	0.89
[46] O=c1nc(NC2CCCC2)ccn1Cc1cccc(Br)c1
    -0.01	0.88
[47] COc1ccc(CCNC(=O)C2CCN(c3ccc(N4CCOCC4)nn3)CC2)c(OC)c1
    -3.21	0.48
[48] CCn1c(SCC(=O)NNC(=O)c2ccc(OC)cc2)nnc1C(C)C
    -0.77	1.91
[49] CCc1cc(=O)oc2cc(C)cc(OCC(=O)NCC3CCC(C(=O)O)CC3)c12 (stereo unspecified)
    0.44	0.82
[50] CC(=O)Nc1ccc(N(C(=O)c2ccco2)C(C(=O)NC2CCCC2)c2cccs2)cc1 (stereo unspecified)
    -0.53	1.86
[51] O=C(O)c1ccc(-c2nc(-c3ccccc3)cs2)cc1
    0.08	0.05
[52] O=C(c1ccc(Cl)c(Cl)c1)N1CCCC1
    -0.9	0.62
[53] COc1ccc(C(=O)NCC(=O)NCC(=O)OCC(=O)c2cccs2)cc1
    -0.62	0.12
[54] CCc1cccc(NC(=O)CNC(=O)N2CC(=O)Nc3ccccc32)c1
    0.75	1.34
[55] COCCCNC(=O)CN1C(=O)CSc2ncccc21
    0	0.3
[56] Nc1ccc(Br)c[n+]1Cc1cccc2cccnc12
    0.48	0.5
[57] Cc1ccc(/C=C(\NC(=O)c2ccccc2)C(=O)NC2CCN(Cc3ccccc3)CC2)o1
    -0.14	0.4
[58] Cc1ccc(CN(c2ccc(C(=O)NCc3ccc4c(c3)OCO4)cc2)S(C)(=O)=O)cc1
    1.05	0.37
[59] CN1CCN(C(=S)c2cn(Cc3cccc(F)c3)c3ccccc23)CC1
    0.53	0.71
[60] Cc1cccc(C(=O)NCC(=O)N2CCN(S(=O)(=O)c3ccccc3)CC2)c1
    -0.05	0.08

Other structures.
Below each compound – KCNQ2 pot baseline	KCNQ2 pot
[61] CN1CCN(c2ncccc2S(=O)(=O)N2CCCCC2)CC1
    -0.73	1.25
[62] COc1ccc(OC)c(NC(=O)c2cnn(-c3ccccc3Cl)c2NC(=O)c2ccco2)c1
    -0.43	0.09
[63] Cc1cc(-c2ccccc2)nc2[nH]n(-c3ccccc3)c(=O)c12
    -2.48	0.22
[64] CN1C(c2ccccc2)CCOS1(=O)=O (stereo unspecified)
    -0.31	0.34
[65] CCCc1cc(=O)oc2cc(OC(C)C(=O)NCc3ccccn3)c(Cl)cc12 (stereo unspecified)
    -0.26	0.76
[66] O=C(CCCN1C(=O)c2ccccc2C1=O)Oc1ccc(F)cc1
    -0.83	0.63
[67] Cc1ccc(-c2nnc3n2N=C(c2ccc(Br)cc2)CS3)cc1
    0.42	0.54
[68] Cc1ccc(C)c(NC(=O)CCCCCN2C(=O)[C@@H]3Cc4ccccc4CN3C2=O)c1
    -0.77	0.77
[69] O=C(Nc1cc2c(cc1Cl)OCCO2)c1ccco1
    -0.7	0.95
[70] O=C(NC(Cc1ccccc1)C(=O)O)/C(=C\c1ccccc1)NC(=O)c1ccc(Br)o1 (stereo unspecified)
    -0.57	0.92
[71] CC(CC1CC(C)(C)OC1=O)C(=O)Nc1ccc([N+](=O)[O-])cc1 (stereo unspecified)
    -0.9	0.3
[72] COc1ccc(CN2CCCC(C(=O)N3CCCC3)C2)cc1 (stereo unspecified)
    1.88	1.86
[73] O=c1[nH]cc(S(=O)(=O)N2CCN(c3cccc(C(F)(F)F)c3)CC2)c(=O)[nH]1
    0.54	0.91
[74] COCCn1c(Cc2ccccc2)nnc1SCC(=O)N1CCCCC1C (stereo unspecified)
    -1.33	0.26
[75] O=C(CCSc1ccc(Cl)cc1)N1CCOCC1
    -0.54	0.03
[76] CCOC(=O)N1CCN(S(=O)(=O)N2CCCC(C(=O)NCCc3ccccc3)C2)CC1 (stereo unspecified)
    -3.47	0.01
[77] Cc1cc(=O)oc2cc(OC(C)C(=O)Nc3ccc(N4CCOCC4)cc3)ccc12 (stereo unspecified)
    1.15	0.24
[78] Cc1cc(C(F)(F)F)n2ncc(-c3ccccc3)c2n1
    -0.74	0.38
[79] N/C(=N\OC(=O)c1ccoc1)c1ccc(Br)cc1
    0.04	0.01
[80] CCOc1ccc2[nH]c3c(NCCCOC)ncnc3c2c1
    0.63	0.81

Three entries already listed, ordered by the number in KCNQ2 pot baseline, largest number first:
entry | Compound | KCNQ2 pot baseline | KCNQ2 pot
61 | CN1CCN(c2ncccc2S(=O)(=O)N2CCCCC2)CC1 | -0.73 | 1.25
78 | Cc1cc(C(F)(F)F)n2ncc(-c3ccccc3)c2n1 | -0.74 | 0.38
68 | Cc1ccc(C)c(NC(=O)CCCCCN2C(=O)[C@@H]3Cc4ccccc4CN3C2=O)c1 | -0.77 | 0.77

Remaining list, next part.
Below each compound – KCNQ2 pot baseline	KCNQ2 pot
[81] O=C(CNC(=O)c1ccccc1Cl)N/N=C/c1ccc2c(c1)OCO2
    0.03	0.85
[82] COc1ccc(C(C(=O)NC(C)(C)C)N(Cc2cccnc2)C(=O)CCC(=O)Nc2cc(C)on2)cc1 (stereo unspecified)
    0.77	0.08
[83] Clc1cc(Cl)cc(CN2CCSCC2)c1
    -0.92	1.59
[84] O=C(c1cccc(Cl)c1)N1CCn2c1nc1ccccc12
    -1.21	0.02
[85] C=CCNC(=S)N(CC)c1cccc2ccccc12
    0.01	0.04
[86] Cc1ccc(-c2nnn(CC(=O)NCCC3=CCCCC3)n2)cc1
    0.04	0.92
[87] O=C1CS(=O)CN1c1ccc(Oc2ccccc2)cc1 (stereo unspecified)
    -0.18	0.95
[88] Cc1c(C(C)(C)O)[nH]c2ccc(C(F)(F)F)cc12
    -0.96	0.68
[89] Cc1ccc2c(c1)C1CN(C)CCC1N2C(=S)NC(=O)c1ccc(Br)cc1 (stereo unspecified)
    -2.06	3.07
[90] COC(=O)C1=C[C@@H](C(=O)OC)[C@@H]2C3=C(C(=O)[C@@]2(C)NC(=O)c2ccccc2)[C@H](C)n2c(=O)n(C)c(=O)n2[C@@H]3C1
    3.03	0.68
[91] CCc1cc(C(=O)Cc2nc3ccccc3s2)c(O)cc1OCC(=O)O
    1.84	0.02
[92] CCN(CCCNC(=O)CCNC(=O)Cn1ccc2ccccc2c1=O)c1ccccc1
    -0.59	0.05
[93] CCn1c(CCc2ccccc2)n[nH]c1=S
    1.28	0.39
[94] CCn1c(SCC(=O)N=Nc2c(O)[nH]c3ccccc23)nc2ccccc21
    -1.81	1.56
[95] O=C(NCCc1ccccn1)C1CCN(S(=O)(=O)c2ccc(Cl)cc2)CC1
    -0.04	0.47
[96] COC(=O)c1cc(CSc2nc3ccccc3[nH]2)oc1C
    -1.85	0.11
[97] CC(=O)Nc1ccc(NC(=S)Nc2ccc(F)cc2)cc1
    -1.18	0.48
[98] Cc1ccc(C(=O)Nc2ccc3c(c2)OCO3)cc1S(=O)(=O)N1CCOCC1
    0.01	2.01
[99] CC(=O)Nc1ccc(NS(=O)(=O)C(F)(F)F)cc1
    -0.28	0.31
[100] CCOC(=O)C(=O)Nc1ccccc1C#N
    0.35	1.55

Other structures follow.
Below each compound – KCNQ2 pot baseline	KCNQ2 pot
[101] COc1ccccc1NS(=O)(=O)c1cc(NC(=O)/C=C/c2cccs2)ccc1N1CCOCC1
    1.05	0.18
[102] O=C(c1ccc(NC(=S)NCc2ccco2)cc1)N1CCOCC1
    -0.41	0.74
[103] O=C(CC(C(=O)O)c1ccccc1)c1cccs1 (stereo unspecified)
    -1.46	0.42
[104] CCc1nn(CC(=O)NCCC(C)C)c(=O)c2cc3c(OC)cccc3n12
    2.93	0.17
[105] COc1cc(C)c(C(C)C)cc1S(=O)(=O)N1CCOCC1
    -1.21	0.87
[106] COc1ccc(S(=O)(=O)Cc2ccc(C(=O)N3CCOCC3)o2)cc1
    0.21	0.31
[107] COc1cc(OC)cc(C(=O)NC(=S)N(Cc2ccccc2)C(C)C)c1
    1.42	5.17
[108] COc1ccc(C(=O)c2c3ccc(C(F)(F)F)cc3[n+]([O-])n2CCCN)cc1
    0.95	2.41
[109] Cn1cccc1CNC(=O)Nc1ccccc1
    -0.16	0.67
